Screens (PubChem BioAssay)
TRPML1 agonist = activates the human TRPML1 channel | Q9GZU1 | TRPML1-expressing cells, Ca2+ dye fluorescence, FDSS; host cell line not named in the record; reference of the full effect not given here | activation, % (concentration not given with the values) | 410,000 tested, 0.12% active; in the data active = activation above about 50%; inconclusive = about 30% to 50%; inactive = below about 30%; also: 0% is about no effect; the text of the record puts the active cut at 80%
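TRPML1-DL cells, Tet-induced overnight (~16 h, 37 degrees C), loaded 45-90 min at room temperature with Ca8 no-wash calcium dye plus quencher. FDSS fluorescence: 10 s baseline, compound pin-transfer, 110 s agonist read, then EC80 54-4 (4uM final) and 110 s antagonist read.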
TRPML1 blocker = inhibitors of human TRPML1 channel | Q9GZU1 | TRPML1-inducible cells, Ca2+ dye fluorescence, FDSS; stronger effect = lower value; inhibition of EC80 agonist-evoked calcium signal | activity change, negative = inhibition, % (no concentration beside the values) | 390,000 tested, 0.02% active; in the data active means activity change below about -50%; inconclusive means about -30% to -50%; inactive means above about -30%;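 also: stimulus is agonist 54-4 at its EC80 concentration; % is scaled to controls: 0 for no effect and ±100 for the full control effect; compound concentration not given in the record; the text of the record puts the active cut at -80%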
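TRPML1-DL cells, Tet-induced overnight (~16 h, 37 °C) at 1,500 cells/well, were loaded with Ca8 no-wash dye plus quencher for 45-90 min at room temperature. Compounds were pinned during FDSS kinetic reading; agonist 54-4 at EC80 (4 uM final) then added.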
D2 ag = human D2 receptor agonism in beta-arrestin assay; AID 624465; 360,000 tested, 0.084% active; DiscoveRx PathHunter D2 beta-arrestin, luminescence, 90 min; 100% = 57 uM dopamine signal; activation, % (test concentration not listed); in the data active = activation above about 40%; inconclusive = about 15% to 40%; inactive = below about 15%; also: compound concentration not given in the record; the text of the record calls up to 30% inactive
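DiscoveRx PathHunter D2 beta-arrestin cells (2,100/well) attached overnight, then compound-stimulated 90 min at 37 C in HBSS/10 mM HEPES/0.1% Tween-20 buffer; beta-galactosidase complementation read by luminescence after 1 h at ambient temperature. Dopamine 57 uM final (EC100) as control.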
D2 potentiator = human D2 receptor positive allosteric modulation; P14416; DiscoveRx D2 beta-arrestin cells, luminescence, 90 min; 100% = 57 uM dopamine signal; potentiation, % (concentration not given with the values); 360,000 tested, 0.23% active; AID 624464; active = potentiation of 50% or more; inconclusive = 30% to 50%; inactive = 30% or less;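 also: compound concentration not given in the record; tested on top of an EC20 dose of dopamine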
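PathHunter D2 cells, attached overnight at 37 deg C, received compound in DMSO plus dopamine at EC20 (50 nM final) for 90 min at 37 deg C. Beta-arrestin recruitment was read as luminescence after 1 h with detection reagent at ambient temperature.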
Six1-Eya2 inh = blocks human Six1 binding to Eya2; activity change, % (test concentration not listed); Q15475+O00167; AID 651725; 360,000 tested, 0.56% active; AlphaScreen GST-Six1/His-Eya2 binding, biochemical; stronger effect = lower value; control for the full effect not named in the record; in the data active = activity change below about -65%; inconclusive = about -30% to -65%; inactive = above about -30%; also: % is scaled to controls: 0 for no effect and ±100 for the full control effect; compound concentration not given in the record
Target sequence (O00167 whole entry, looked up): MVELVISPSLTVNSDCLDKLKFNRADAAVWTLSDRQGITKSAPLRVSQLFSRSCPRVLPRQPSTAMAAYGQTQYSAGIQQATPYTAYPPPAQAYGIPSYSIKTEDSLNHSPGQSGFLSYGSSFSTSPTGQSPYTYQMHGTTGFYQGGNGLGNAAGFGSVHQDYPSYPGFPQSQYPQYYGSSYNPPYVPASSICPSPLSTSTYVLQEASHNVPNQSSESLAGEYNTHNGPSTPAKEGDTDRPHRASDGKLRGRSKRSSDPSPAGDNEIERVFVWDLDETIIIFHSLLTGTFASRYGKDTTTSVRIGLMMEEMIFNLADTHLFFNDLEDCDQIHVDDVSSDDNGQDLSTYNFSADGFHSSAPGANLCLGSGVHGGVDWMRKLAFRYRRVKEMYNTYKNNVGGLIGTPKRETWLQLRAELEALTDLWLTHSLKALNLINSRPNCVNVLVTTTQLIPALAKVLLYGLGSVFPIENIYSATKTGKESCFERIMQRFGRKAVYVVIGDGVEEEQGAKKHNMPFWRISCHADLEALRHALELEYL
Target sequence (Q15475 whole entry, looked up): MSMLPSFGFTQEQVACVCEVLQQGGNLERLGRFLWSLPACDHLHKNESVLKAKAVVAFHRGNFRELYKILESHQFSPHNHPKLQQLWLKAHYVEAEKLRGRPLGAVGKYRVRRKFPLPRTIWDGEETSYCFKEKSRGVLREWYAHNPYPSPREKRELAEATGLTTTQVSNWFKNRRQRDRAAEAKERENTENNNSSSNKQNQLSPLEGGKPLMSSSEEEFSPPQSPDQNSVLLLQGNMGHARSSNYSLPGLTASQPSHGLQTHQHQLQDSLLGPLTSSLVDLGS
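AlphaScreen luminescence read after one hour at 37 °C in darkness. Pin-transferred compounds met GST-Six1 and His-Eya2 protein (5X stock 250 nM/500 nM) plus glutathione donor and Ni-chelate acceptor beads (5X, 50 ug/mL).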
PINK1 expr mod = modulators of PINK1 expression; AID 624263; Potency, µM (highest dose often 76.6 µM), inactives show top-dose activation (PINK1 increase), hits mostly activators; 410,000 tested, 0.2% active; PINK1 immunofluorescence, high-content cytometry, 24 h; active = well fitted activation curve with a large enough effect; inconclusive = small, poorly fitted or top-dose-only effect; inactive = flat fitted curve, though single readings scatter; cell line not stated here;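 also: potency is read from the fitted curve at half-maximal effect; % of control where 0% means no effect; nearly all actives have a fitted effect of over 65% in size; a mitochondrial uncoupler was the plate control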
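Measures PINK1 amount and localization on or inside mitochondria by immunofluorescence. Stable cells get compounds at 5 concentrations for 24 hours before fixation and staining; CCCP controls included.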
* hit, by the source's call; ? = inconclusive; . = not tested or not shown; [ ] = dose if it differs, or a comment.

Each structure is followed by: TRPML1 agonist	TRPML1 blocker	D2 ag	D2 potentiator	Six1-Eya2 inh	PINK1 expr mod
O=C(c1ccccc1)N(Cc1nc2ccccc2c(=O)[nH]1)C1CCCC1
 : -0.3	17	1.1	-1	0	1.8%
O=C(CCN1C(=O)C2CC=C(Cl)CC2C1=O)NCc1ccccc1 (stereo unspecified)
 : 0.2	2	-11	11	3	3.2%
COC(=O)CN(c1ccccn1)S(=O)(=O)c1ccccc1
 : 0.5	-4	-2.2	-10	9	-3.0%
NCCc1nc2cccnc2n1-c1ccccc1
 : -0.8	-21	.	.	.	-0.1%
CCc1ccc(C(=O)CSc2n[nH]c(-c3ccncc3)n2)cc1
 : 1.9	0	-2.3	-1	1	2.9%[38.3 µM]
Clc1ccc2nc(-c3ccc4c(c3)OCO4)cn2c1
 : 1.0	7	-0.4	5	-9	7.1%
Cc1ccc(NC(=O)Cc2ccsc2)cc1Cl
 : -0.7	5	0.4	-5	7	0.5%
COc1ccc(-c2csc(NC(=O)c3c(OC)cccc3OC)n2)cc1
 : -0.5	2	3.3	-9	0	7.4%
O=C(CN1C(=O)NC2(CCCCCCC2)C1=O)N1CCc2ccccc2C1
 : 3.3	18	-8.4	11	9	-0.5%
CC(OC(=O)CCCN=C1NS(=O)(=O)c2ccccc21)C(=O)Nc1ccccc1[N+](=O)[O-] (stereo unspecified)
 : 0.8	-11	3.9	14	-3	4.8%
COc1ccc([C@H]2CC(=O)C=C(c3ccc4ccn(C)c4c3)C2)cc1
 : 1.4	2	-3.8	-16	-15	1.7%
COc1ccccc1C(=O)N1CCN(C(=O)[C@H]2O[C@@H](n3cnc4c(N)ncnc43)[C@H](O)[C@@H]2O)CC1
 : -0.3	-6	-6.3	-1	2	0.6%
CNC(=O)CN(C)S(=O)(=O)c1ccc(F)cc1
 : 1.2	11	-4.1	-2	-5	27%[38.3 µM]
Cc1ccc(CNC(=O)CSc2c(C(C)C)cnc3c2c(=O)n(C)c(=O)n3C)cc1
 : 1.3	-23	.	.	.	2.1%
CCCOP(=O)(c1ccc(N(C)C)cc1)C(O)c1cc(OC)c(OC)c(OC)c1 (stereo unspecified)
 : -0.4	-1	-6.8	-11	-1	0.3%
O=C(Nc1cccnc1)C1CCN(S(=O)(=O)c2cccs2)CC1
 : -0.1	-7	-11	-40	6	2.1%
CC(=O)c1ccc(NC(=O)Cn2cnc(S(=O)(=O)N3CCC(C)CC3)c2)cc1
 : 0.5	8	0.2	-7	3	0.1%
CCCc1c(C(=O)N/N=C/C(C)=C/c2ccco2)nnn1-c1nonc1N
 : 0.8	-1	-0.4	-8	2	6.8%
Cc1cccc(-n2nc3c(c2NC(=O)c2ccco2)CSC3)c1C
 : 0.5	-6	-4.0	-11	-10	?
CC(=O)c1ccccc1NC(=O)COC(=O)c1ccccc1NC(=O)c1ccccc1
 : 1.7	8	-0.6	-4	8	8.6%
O=[N+]([O-])c1ccc(CSc2nnc(SCc3ccccc3)s2)cc1
 : 1.8	12	-0.4	2	-9	-0.2%
CCc1nnc(NC(=O)CCN(c2ccc(C)cc2)S(=O)(=O)c2ccccc2)s1
 : 0.5	-15	2.8	-4	5	4.3%
CC(C)C1C2=C(CC(C)(C)CC2=O)ON1c1ccccc1 (stereo unspecified)
 : 3.0	1	0.9	-10	23	.
Cc1ccc2[nH]c(O)c(N=Nc3ccccc3C)c2c1
 : 1.7	-10	-4.8	-9	13	-0.8%
CCc1ccc(NC(=O)COC(=O)CCC2CCCC2)cc1
 : 0.8	23	0.0	1	23	-1.0%
C[C@@H](C(=O)Nc1cccc(S(=O)(=O)N2CCOCC2)c1)N1C(=O)C2CC=CCC2C1=O (stereo partly specified)
 : -0.1	6	0.0	-4	2	-1.0%
CCOC(=O)c1sc(N)c(C#N)c1CSc1nc2ccc(C)cc2[nH]1
 : 3.4	17	0.0	7	-3	-1.4%
COc1ccc(OC)c(NC(=O)CCNS(=O)(=O)c2ccc3c(c2)c(=O)n(C)c(=O)n3C)c1
 : 0.1	9	2.5	-19	-16	-1.7%
CCCN(CCC)C1Sc2ccc(C(=O)OC)cc2NC1=O (stereo unspecified)
 : -0.1	21	0.4	-4	3	?
CCOC(=O)c1c(NC(C)=O)c2c3c(sc2n1Cc1nc(-c2cccc(C)c2)oc1C)CCCC3
 : -0.4	12	.	.	.	0.2%
CC(NC(=O)CSc1nc2c(c(C(F)(F)F)n1)CCc1ccccc1-2)c1ccccc1 (stereo unspecified)
 : 0.5	36	3.9	1	2	-0.6%
O=C(Nc1cccnc1)C1CCC(CNS(=O)(=O)c2cccc3nsnc23)CC1 (stereo unspecified)
 : 0.4	10	-1.3	-8	-11	0.4%
O=C(O)c1ccc(Nc2nc3ccccc3c3nncn23)cc1
 : -0.4	-7	.	.	.	-1.2%
Cc1cccc(OCC(=O)OC(C)C(=O)Nc2ccc(S(=O)(=O)N3CCCCC3)cc2)c1 (stereo unspecified)
 : 2.3	3	1.9	5	2	6.9%
Nn1c(C2CCC2)nc2cc(Cl)ccc2c1=O
 : 0.1	-10	-5.2	-5	4	6.0%
COc1cc2ccccc2cc1C(=O)Nc1ccc(Cl)cn1
 : .	.	-2.0	-11	10	6.0%
CCC(=O)Nc1ccc2c(c1)nc(CCNC(=O)c1ccco1)n2C
 : 0.3	10	-0.1	-3	5	1.6%
CCN(CC)S(=O)(=O)c1cccc(C(=O)N[C@H](C(=O)OCC(=O)Nc2ccccc2)C(C)C)c1
 : -0.8	-1	-3.4	-2	3	0.4%
COc1ccccc1N1CCN(c2c(CN3CCCC3)c(=O)oc3ccccc23)CC1
 : -0.5	6	.	.	.	0.7%
COC(=O)c1sccc1NC(=O)Cc1ccc(OC)cc1
 : 2.8	-7	3.3	-5	6	0.7%
CC(=O)Nc1ccc(S(=O)(=O)Nc2cccc(-c3cn4c(n3)SCC4)c2)cc1
 : 1.3	1	-0.3	0	1	4.4%
CCOC(=O)C1(CC2CC2)CCN(Cc2ccc(OC)cc2F)CC1
 : 0.0	23	-0.1	-15	0	0.3%
OC(COc1c(Br)cc(Br)cc1Br)CN1CCOCC1 (stereo unspecified)
 : -0.6	9	-1.9	-10	4	1.0%
CCCOC(=O)c1[nH]c2c(c1C)C(=O)CC(c1cc(OC)c(OC)c(OC)c1)C2 (stereo unspecified)
 : 0.7	2	15	6	-4	4.7%
COc1cccc(CNc2ncnc3cc(Cl)ccc23)c1
 : -0.1	35	2.7	-14	4	-1.5%
COc1ccc(C=C2OC(=O)C(C(C)=O)=C2O)cc1
 : 1.8	-4	-11	-13	15	-1.7%
CCc1ccc(CN(C)CCc2ccccn2)cc1
 : 0.0	17	-0.3	-20	0	15%[38.3 µM]
O=C(Nc1ccc2nn(-c3ccc(F)cc3)nc2c1)c1cccnc1
 : -0.7	-25	-4.7	-2	-14	-3.0%
CN(C)NC1=CC(=[N+]2CCCC2)CC(C)(C)C1
 : 0.2	17	5.2	7	14	2.5%
COc1ccc(N(CC(=O)NC2CCCC2)C(=O)Cn2nnc(-c3ccc(F)cc3)n2)cc1
 : 2.1	-7	1.3	-9	-4	0.9%
CN(C)C(=O)CCc1ccc2c3c([nH]c2c1)[C@]1(C)[C@@H](C(=O)N2CCOCC2)C[C@H](CC(=O)NC(C)(C)C)C(=O)N1CC3
 : -0.2	3	2.3	.	7	0.3%
Cc1c[nH]c2cccc(OCC(CNC(C)(C)C)OC(=O)c3ccccc3)c12 (stereo unspecified)
 : 2.7	-19	-3.8	-18	?	11%
CC(C)NC(=O)c1ccc2sc([C@@H]3O[C@H](CO)[C@H](O)[C@H](O)[C@H]3O)nc2c1
 : -0.4	.	9.2	-4	1	1.0%
O=c1c(NCCc2ccc(Cl)cc2)nccn1-c1ccccc1
 : 1.2	28	.	.	.	-0.4%
O=C(NCc1cccc(Cl)c1)C(=O)Nc1ccc2nc3n(c(=O)c2c1)CCCCC3
 : 2.9	-11	.	.	.	4.1%
CC1CCCC(NC(=O)CSc2ncccc2C(=O)O)C1C (stereo unspecified)
 : -0.6	15	-2.2	-9	8	1.9%
COC(=O)C1=C(C)N(c2ccccc2)/C(=C/c2cccs2)C1=O
 : 0.6	-4	-0.3	-3	-1	-1.8%[38.3 µM]
COc1ccc(C2=NN(CCC(=O)NCCc3ccccc3)C(=O)CC2)cc1
 : 2.2	-18	.	.	.	-1.4%
COc1ccc(-c2noc(CCC(=O)NC3CCCCC3)n2)cc1
 : 0.6	12	-1.0	-18	1	1.6%
O=C(CCN1CCC(c2ccccc2)C1)c1ccccc1 (stereo unspecified)
 : 0.9	17	0.5	-17	3	3.5%[38.3 µM]

The list continues.
Each structure is followed by: TRPML1 agonist	TRPML1 blocker	D2 ag	D2 potentiator	Six1-Eya2 inh	PINK1 expr mod
CCCN(CC1COc2ccccc2O1)C(=S)Nc1ccc(C)cc1 (stereo unspecified)
 : -0.4	10	-0.4	-28	11	-0.5%
Cc1ccc(NC(=O)c2ccc(F)c(S(=O)(=O)N3CCc4ccccc4C3)c2)cc1F
 : 1.7	-15	.	.	.	1.1%
O=C(CN(Cc1ccccc1)S(=O)(=O)c1ccc(Br)cc1)NCc1ccco1
 : 0.9	7	-0.4	-14	-5	?
Cc1ccc(S(=O)(=O)Nc2cccc(-c3ccc(N4CCCCCC4)nn3)c2)cc1C
 : 2.7	51	4.6	-18	-9	-0.7%
NN=C1c2ccccc2C(=O)C1C(=O)C(c1ccccc1)c1ccccc1 (stereo unspecified)
 : 23	-6	-2.7	-34	-14	0.4%
O=C(C1CCN(S(=O)(=O)c2ccc(F)cc2)CC1)N1CCCC(C(F)(F)F)C1 (stereo unspecified)
 : 0.3	-1	3.7	-4	6	-1.2%
CCOC(=O)C1=C(C)N(C)C(C)=C(C(=O)OCC)C1c1ccncc1
 : -0.8	12	-4.4	-4	9	3.8%

7 compounds already listed, ordered by SMILES length, high to low:
Each structure is followed by: TRPML1 agonist	TRPML1 blocker	D2 ag	D2 potentiator	Six1-Eya2 inh	PINK1 expr mod
Cc1ccc(NC(=O)c2ccc(F)c(S(=O)(=O)N3CCc4ccccc4C3)c2)cc1F
 : 1.7	-15	.	.	.	1.1%
O=C(C1CCN(S(=O)(=O)c2ccc(F)cc2)CC1)N1CCCC(C(F)(F)F)C1 (stereo unspecified)
 : 0.3	-1	3.7	-4	6	-1.2%
Cc1ccc(S(=O)(=O)Nc2cccc(-c3ccc(N4CCCCCC4)nn3)c2)cc1C
 : 2.7	51	4.6	-18	-9	-0.7%
O=C(CN(Cc1ccccc1)S(=O)(=O)c1ccc(Br)cc1)NCc1ccco1
 : 0.9	7	-0.4	-14	-5	?
COc1ccc(C2=NN(CCC(=O)NCCc3ccccc3)C(=O)CC2)cc1
 : 2.2	-18	.	.	.	-1.4%
CCCN(CC1COc2ccccc2O1)C(=S)Nc1ccc(C)cc1 (stereo unspecified)
 : -0.4	10	-0.4	-28	11	-0.5%
O=C(CCN1CCC(c2ccccc2)C1)c1ccccc1 (stereo unspecified)
 : 0.9	17	0.5	-17	3	3.5%[38.3 µM]
